Six1-Eya2 blk: qHTS Assay for Inhibitors of the Six1/Eya2 Interaction; AlphaScreen GST-Six1/His-Eya2 binding, biochemical; stronger effect = lower value; control for the full effect not named in the record; activity change, % (no concentration beside the values); 0.56% of 360,000 active; AID 651725, 2012; in the data active = activity change below about -65%; inconclusive = about -30% to -65%; inactive = above about -30%; further: on the % scale 0 is the no-effect control and ±100 the full control effect; compound concentration not given in the record
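AlphaScreen with GST-Six1 and His-Eya2 (5X mix: 250 nM and 500 nM), glutathione donor and nickel acceptor beads; buffer 50 mM Tris pH 8.0, 300 mM NaCl, 1 mM TCEP; 1 h at 37 C in the dark.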
TRPML1 agonist: qHTS for Agonists of the Human Mucolipin Transient Receptor Potential 1 (TRPML1). TRPML1-expressing cells, Ca2+ dye fluorescence, FDSS; host cell line not named in the record; reference of the full effect not given here. activation, % (concentration not given with the values). 0.12% of 410,000 active. AID 624414, 2012; in the data active = activation above about 50%; inconclusive = about 30% to 50%; inactive = below about 30%; further: 0% is about no effect; the text of the record puts the active cut at 80%
Target sequence (Q9GZU1 whole entry, looked up): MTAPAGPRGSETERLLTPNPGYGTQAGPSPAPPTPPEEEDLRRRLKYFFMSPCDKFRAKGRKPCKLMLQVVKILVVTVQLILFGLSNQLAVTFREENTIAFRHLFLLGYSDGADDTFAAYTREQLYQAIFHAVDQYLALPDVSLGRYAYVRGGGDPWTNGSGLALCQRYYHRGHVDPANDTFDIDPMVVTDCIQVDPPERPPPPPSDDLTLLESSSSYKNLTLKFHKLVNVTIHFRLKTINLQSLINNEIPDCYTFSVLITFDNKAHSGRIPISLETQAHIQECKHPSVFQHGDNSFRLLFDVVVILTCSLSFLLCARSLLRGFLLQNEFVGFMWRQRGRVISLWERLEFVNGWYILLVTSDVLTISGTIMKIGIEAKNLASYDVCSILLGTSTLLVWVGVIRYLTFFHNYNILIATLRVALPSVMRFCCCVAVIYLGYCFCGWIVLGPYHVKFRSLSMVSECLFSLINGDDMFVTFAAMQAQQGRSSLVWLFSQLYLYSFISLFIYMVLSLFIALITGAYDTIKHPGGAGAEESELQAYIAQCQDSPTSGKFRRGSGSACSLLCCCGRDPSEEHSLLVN
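Tetracycline-induced TRPML1-DL cells are seeded and incubated overnight before loading with a no-wash Ca2+ dye and quencher. Agonist activity is taken from the 110 s fluorescence read following compound pin-transfer on an FDSS, before EC80 54-4 challenge.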
CtBP-E1A blk: qHTS Assay for Inhibitors of the CtBP/E1A Interaction | CtBP / adenovirus E1A interaction (AlphaScreen) | AlphaScreen GST-E1A/His-CtBP binding, 1536-well; stronger effect = lower value; control for the full effect not named in the record | activity change, % (concentration not given with the values) | 0.49% of 340,000 active; in the data active means activity change below about -65%; inconclusive means about -30% to -65%; inactive means above about -30%; further: on the % scale 0 is the no-effect control and ±100 the full control effect
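In 5 uL wells, 23 nL compound meets equimolar GST-E1A and His-CtBP (5X stock 125 nM each) for 2 h, 37 °C. Beads (5X, 50 ug/mL) then 1 h, 37 °C, dark.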
PINK1 expr mod: A Quantitative High throughput Screen to Identify Chemical Modulators of PINK1 Expression | PINK1 immunofluorescence, high-content cytometry, 24 h | Potency, µM (series often up to 76.6 µM), for the others: at the highest dose activation (PINK1 increase), usual class: activators | 0.2% of 410,000 active | AID 624263, 2012; active = well fitted activation curve with a large enough effect; inconclusive = small, poorly fitted or top-dose-only effect; inactive = flat fitted curve, though single readings scatter; cell line not stated here;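 further: potency means the concentration at half of the fitted maximal effect; % of control where 0% means no effect; nearly all actives have a fitted effect of over 65% in size; a mitochondrial uncoupler was the plate control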
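Readout is PINK1 immunofluorescence, quantified alongside mitochondrial, cell and nuclear markers by laser-scanning microplate cytometry. Cells from a stable line were exposed to compound titrations (5 concentrations) for 24 hours, with CCCP controls.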
D2 agonist: Beta-Arrestin HTS for Positive Allosteric Modulators of the Human D2 Dopamine Receptor: Agonists; D(2) dopamine receptor (Homo sapiens), P14416; DiscoveRx PathHunter D2 beta-arrestin, luminescence, 90 min; 100% = 57 uM dopamine signal; activation, % (test concentration not listed); 0.084% of 360,000 active; in the data active = activation above about 40%; inconclusive = about 15% to 40%; inactive = below about 15%; further: compound concentration not given in the record; the text of the record calls up to 30% inactive
Target sequence (P14416 whole entry, looked up): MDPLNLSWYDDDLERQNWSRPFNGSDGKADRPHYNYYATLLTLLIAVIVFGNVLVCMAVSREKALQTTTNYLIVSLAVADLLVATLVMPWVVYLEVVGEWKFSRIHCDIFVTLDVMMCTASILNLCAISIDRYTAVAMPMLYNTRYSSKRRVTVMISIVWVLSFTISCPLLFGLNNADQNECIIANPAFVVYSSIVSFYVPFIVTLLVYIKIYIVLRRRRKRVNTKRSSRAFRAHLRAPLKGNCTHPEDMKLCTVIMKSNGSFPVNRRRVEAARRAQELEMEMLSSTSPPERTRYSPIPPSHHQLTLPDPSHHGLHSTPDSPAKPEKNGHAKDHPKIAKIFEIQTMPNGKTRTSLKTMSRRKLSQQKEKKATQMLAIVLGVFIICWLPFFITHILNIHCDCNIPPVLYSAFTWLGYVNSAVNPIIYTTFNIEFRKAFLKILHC
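Agonist mode: compounds alone added to overnight-plated D2 PathHunter cells for 90 min at 37 C, with 57 uM final dopamine (EC100) defining full response. Beta-arrestin recruitment detected by chemiluminescent reagent, read after 1 h at ambient temperature.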
D2 PAM: Beta-Arrestin HTS for Positive Allosteric Modulators of the Human D2 Dopamine Receptor: Potentiators; AID 624464, 2012; 0.23% of 360,000 active; DiscoveRx D2 beta-arrestin cells, luminescence, 90 min; 100% = 57 uM dopamine signal; potentiation, % (concentration not given with the values); D(2) dopamine receptor (Homo sapiens), P14416; active = potentiation of 50% or more; inconclusive = 30% to 50%; inactive = 30% or less;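 further: compound concentration not given in the record; tested on top of an EC20 dose of dopamine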
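PathHunter D2 cells, attached overnight at 37 deg C, received compound in DMSO plus dopamine at EC20 (50 nM final) for 90 min at 37 deg C. Beta-arrestin recruitment was read as luminescence after 1 h with detection reagent at ambient temperature.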
* = called active by the depositor; u = inconclusive; x = not tested or not shown; [ ] = another dose, or the depositor's remark.

Order of values – Six1-Eya2 blk, TRPML1 agonist, CtBP-E1A blk, PINK1 expr mod, D2 agonist, D2 PAM
O=C(NCCc1c[nH]c2ccccc12)C(=O)NCC(c1ccco1)N1CCN(c2ccccc2F)CC1 (stereo unspecified)
 : 12, 1.3, -1, u, 6.8, 2
Cn1cnnc1SCC(=O)Nc1sc2c(c1C(N)=O)CCC2
 : u, 0.2, 45, -5.5%[38.3 µM], -1.2, -2
Cc1cn(C2CCCO2)c(=O)nc1N (stereo unspecified)
 : 0, -0.1, -2, 1.1%, -1.8, -10
Cc1cc(CNC(=O)C2CCC(=O)N(Cc3ccccc3F)C2)on1 (stereo unspecified)
 : 7, 0.5, 0, -0.7%, -0.3, -6
N#Cc1ccc(OCc2nnc3n2CCCCC3)cc1
 : 9, 0.0, x, -0.5%, -5.4, -3
CCOC(=O)c1ccccc1NC(=O)CSc1nnc(C)c(=O)[nH]1
 : -6, -0.2, 11, 0.2%, -2.2, 6
Cc1nn(-c2ccccc2)c(N2CCCCC2)c1/C=N/O
 : 3, 1.4, 2, 18%[38.3 µM], 1.5, -5
O=C1NC(CCc2ccccc2)C(=O)N1CCOc1ccccc1 (stereo unspecified)
 : -3, -0.4, 13, 0.9%, -3.4, -3
N#Cc1c(-c2ccccc2)nc(SCC(=O)Nc2ccccc2F)[nH]c1=O
 : -10, 0.7, 3, 2.5%, -0.7, -11
Cc1[nH]c2ccccc2c1/C=N/NC(=O)C1CC1(c1ccccc1)c1ccccc1 (stereo unspecified)
 : 1, 0.1, 8, -0.1%, 0.4, 8

Other records.
Order of values – Six1-Eya2 blk, TRPML1 agonist, CtBP-E1A blk, PINK1 expr mod, D2 agonist, D2 PAM
COc1ccc(NC(=O)c2c(C(F)(F)F)nn(C)c2SCc2ccccc2)cc1
 : 11, 1.9, -4, -0.9%, 0.6, -3
Cc1ccc(S(=O)(=O)N2CCN(c3nn(C)c(=O)n(C)c3=O)CC2)cc1C
 : 4, 0.2, -7, -1.3%, -15, 0
COC(=O)C1=C(C)NC(C)=C(C(=O)OC)C1c1ccccn1
 : 2, -0.2, 0, -1.4%[38.3 µM], -1.6, -8
O=C(NCc1ccco1)N1c2ccccc2Sc2ccccc21
 : -22, 2.1, -17, u, -6.0, -4
O=C(COC(=O)CCc1nc2ccccc2c(=O)[nH]1)Nc1ccc(N2CCOCC2)cc1
 : -4, 0.4, 1, -1.2%, -5.5, -5
CC1(C)CC(=O)C2=C(C1)OC(c1cccs1)C(C#N)=C2N (stereo unspecified)
 : 5, -0.6, 18, -0.8%[38.3 µM], -2.8, -9
CC(C)c1nc2c(c(=O)n(C)c(=O)n2C)n1C
 : 0, 0.3, x, -0.2%, -1.7, -10
COc1ccc(NC(=O)c2oc3ccccc3c2NC(=O)C2CC2)cc1OC
 : -10, 0.7, -6, 0.4%, -5.0, -12
Cc1ccc(S(=O)(=O)N2CCC[C@H]2C(=O)OCC(=O)N2c3ccccc3NC(=O)C2(C)C)cc1
 : -1, 0.7, -12, 1.3%, 1.8, 2
COCCCN(C(=O)c1ccco1)c1nc(-c2ccc(OC)cc2)cs1
 : -19, 1.7, 0, 0.7%, -7.1, -8

(listing goes on)
Order of values – Six1-Eya2 blk, TRPML1 agonist, CtBP-E1A blk, PINK1 expr mod, D2 agonist, D2 PAM
CCOC(=O)c1ccc(NC(=O)CSc2nnc(CNc3ccc(C)cc3)n2C)cc1
 : -13, -0.5, -6, -1.5%, -0.4, 50*
CN(C)CCCNS(=O)(=O)c1ccc(N2CCN(Cc3ccc4c(c3)OCO4)CC2)c([N+](=O)[O-])c1
 : 12, -0.5, -11, -0.4%, -5.0, -9
CCOc1nnc(C)c2c(C)n(-c3ccc(Cl)cc3)nc12
 : 1, 3.8, -2, -0.4%, -5.2, 6
CCOc1ccc(S(=O)(=O)N2CCC(C(=O)NCc3ccco3)CC2)cc1C
 : 3, 0.6, 6, 4.8%, -1.0, -2
COc1ccc2oc(=O)c(C(=O)N3CCN(C(=O)c4ccccc4)CC3)cc2c1
 : -2, -0.1, 0, 2.7%, -3.7, 0
CCOC(=O)C1CCN(S(=O)(=O)c2ccc3c4c2CC(=O)N4CC(C)S3)CC1 (stereo unspecified)
 : 9, -1.0, -13, 0.2%, 15, 0
CC(C)C(NC(=O)OCc1ccccc1)C(=O)NC1CCCCC1 (stereo unspecified)
 : 4, 0.3, 5, -1.6%, -0.1, 12
CCOc1ccc(NC(=O)C(=O)NCc2ccncc2)cc1
 : 6, 0.0, 0, -0.1%, -5.4, -18
CCOc1ccc(C(=O)OC(C)CN2CCN(C)CC2)cc1 (stereo unspecified)
 : 12, -0.3, -1, 0.7%, -1.8, -7
CNC(=O)C1CCC(=O)N1Cc1ccccc1Cl (stereo unspecified)
 : 1, 0.4, 7, 2.6%[38.3 µM], -5.2, 2

The list continues.
Order of values – Six1-Eya2 blk, TRPML1 agonist, CtBP-E1A blk, PINK1 expr mod, D2 agonist, D2 PAM
CC(=O)Nc1ccc(S(=O)(=O)N2CCC(NC(=O)C(Cc3cccc(F)c3)NC(C)=O)CC2)cc1 (stereo unspecified)
 : 3, 0.7, 7, 2.4%, 6.8, 0
CCN(CC)C(=O)CSc1nnc(CCN)o1
 : 4, 0.9, 2, 10%[38.3 µM], -5.1, -10
CNC(=O)C1(C)CCN1C(=O)Cc1ccc(C(C)C)cc1 (stereo unspecified)
 : 0, 0.0, 6, 2.7%, 8.8, 3
CCn1c(SCc2ccc(C(=O)O)cc2)nnc1-c1ccc(Cl)cc1
 : -6, x, x, 2.5%, -3.4, 3
COc1cccc(N(C(=O)c2sc(C)nc2C)C(C(=O)NCC2CCCO2)c2ccccc2)c1 (stereo unspecified)
 : 6, -0.7, 0, 2.1%, -4.5, -7
CC(C)(C)NS(=O)(=O)c1ccc(CCC(=O)O)cc1
 : 2, -0.5, 6, -2.3%[38.3 µM], -2.2, -2
CC(Oc1ccc(C(C)(C)C)cc1)C(=O)NCC(c1ccco1)N1CCCC1 (stereo unspecified)
 : -10, 0.7, -17, 0.4%, -2.4, -3
COc1ccc(Cl)cc1-c1cc(C(=O)NC2CCCCC2)[nH]n1
 : 1, -0.5, 3, 2.8%, -3.1, -11
CSCCCNC(=O)c1ccc(OC2CCN(C(=O)c3cccnc3)CC2)cc1
 : -4, 1.2, 6, -1.2%, -1.4, -7
CC(=O)Nc1ccc(-c2ccnc3c2CC(C(=O)Nc2ccc4c(c2)OCO4)O3)cc1 (stereo unspecified)
 : -4, -0.8, -2, 4.9%, -1.9, -10

Further structures follow:
Order of values – Six1-Eya2 blk, TRPML1 agonist, CtBP-E1A blk, PINK1 expr mod, D2 agonist, D2 PAM
Cc1ccc(/C=C(\C#N)C(=O)N2CCCC2)c(C)c1
 : 11, -0.4, -13, 2.8%, -5.8, -2
COc1ccc(Cc2nc(-c3ccc(-n4cccc4)cc3)no2)cc1
 : 0, 2.6, 5, 6.0%, -1.0, -2
Cc1ccc(N/C=C/C(=O)C(C)(C)C)c(O)c1
 : -3, 0.3, -10, 4.3%[38.3 µM], 3.3, 3
CSc1ccccc1NC(=O)C1CCCN(S(C)(=O)=O)C1 (stereo unspecified)
 : -1, 1.0, 0, 0.1%, -1.1, -1
CCC(C)C(NC(=O)C1CCC(C)CC1)C(=O)NCc1ccco1 (stereo unspecified)
 : 0, -0.1, -15, 1.6%, 2.6, -6
C/C(=N\NC(=O)Cn1nnc2ccccc21)c1ccco1
 : 6, 0.3, -19, -0.8%, -1.3, -15
O=S(=O)(Nc1cc(Sc2ncn[nH]2)c(O)c2ccccc12)c1ccccc1
 : 5, -0.2, -20, -1.3%, u, 12
O=C(CSc1nnnn1C1CCCCC1)NNC(=O)c1ccco1
 : 5, 0.6, 8, 0.0%, 0.4, -4
NC(=O)C1CCN(CC(=O)Nc2ccc3c(c2)OCCO3)CC1
 : 1, 1.3, -5, -0.7%, 0.5, -14
CN(C)/C=C1/C=C(c2ccccc2)OC1=O
 : 4, 0.1, 7, 5.5%[38.3 µM], -3.4, -11

Next section
Order of values – Six1-Eya2 blk, TRPML1 agonist, CtBP-E1A blk, PINK1 expr mod, D2 agonist, D2 PAM
COc1cccc(N2CCN(C(=O)Cn3c(=O)oc4ccccc43)CC2)c1
 : 4, -0.6, -5, -1.1%, -0.6, -6
CCC(Oc1ccccc1)C(=O)Nc1nnc(S(=O)(=O)N2CCCCC2)s1 (stereo unspecified)
 : -9, -1.0, x, -1.6%, 1.5, -10
CCOc1cc(C)c(-c2onc(C(F)(F)F)c2-c2csc(C)n2)c(O)c1
 : 0, 0.2, 2, 19%[38.3 µM], -0.3, 12
COCCN1Cc2cccc(C(=O)Nc3cccc(OC)c3)c2C1=O
 : 1, 0.5, -2, 0.2%, 0.7, -16
O=C(CNCCN1CCOCC1)Nc1ccccc1Sc1ccccc1
 : 5, 0.0, 0, 0.1%, -4.1, -5
Cc1cc(=O)[nH]c(SCC(=O)Nc2nc(-c3ccccc3)cs2)n1
 : -5, 0.1, -2, -1.0%, -1.3, -1
COc1cccc2[nH]c3c(N4CCC(C(N)=O)CC4)ncnc3c12
 : -5, -0.3, -9, 28%[38.3 µM], -4.6, -26
CCCCc1nc2cc(C(=O)NCc3cc(C)n(C)n3)ccc2o1
 : 6, 0.3, x, 2.7%, -2.6, -4
O=C(N/N=C/c1sc(=O)[nH]c1-[n+]1ccccc1)c1ccccc1[O-]
 : -5, -1.2, -8, -1.6%, -3.9, -13
COc1ccc(NS(=O)(=O)c2ccc(C(=O)N3CCN(c4ccc(F)cc4)CC3)cc2)cc1
 : -9, 0.4, 3, 1.5%, 8.1, -1
CC(C)c1ccc(NC(=O)COc2ccccn2)cc1
 : -9, 1.4, -24, 2.4%, 0.3, -3
CCCc1nc2ccccc2c(=O)n1NC(=O)c1c(O)c2ccccc2n(C)c1=O
 : 0, 3.1, -5, -0.9%, 3.5, -1

In a second layout: results already given.
canonical_smiles | Six1-Eya2 blk | TRPML1 agonist | CtBP-E1A blk | PINK1 expr mod | D2 agonist | D2 PAM
O=C(COC(=O)CCc1nc2ccccc2c(=O)[nH]1)Nc1ccc(N2CCOCC2)cc1 | -4 | 0.4 | 1 | -1.2% | -5.5 | -5
CC1(C)CC(=O)C2=C(C1)OC(c1cccs1)C(C#N)=C2N (stereo unspecified) | 5 | -0.6 | 18 | -0.8%[38.3 µM] | -2.8 | -9
CC(C)c1nc2c(c(=O)n(C)c(=O)n2C)n1C | 0 | 0.3 | x | -0.2% | -1.7 | -10
COc1ccc(NC(=O)c2oc3ccccc3c2NC(=O)C2CC2)cc1OC | -10 | 0.7 | -6 | 0.4% | -5.0 | -12

Source: PubChem BioAssay
